Compound activity deposited in PubChem BioAssay by several laboratories.
CBX7 inh: inhibitors of human CBX7 binding to H3K27me3 peptide. O95931. AlphaScreen His6-CBX7 / biotin-H3K27me3 peptide binding; hits give low values. normalised signal (fraction of DMSO) (concentration not given with the values). 66,000 compounds, 1.1% hits. AID 1224903; in the data active = normalised signal below about 0.5;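 also: 100 nL library stock added to about 20 µL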
Target sequence (O95931 whole entry, looked up): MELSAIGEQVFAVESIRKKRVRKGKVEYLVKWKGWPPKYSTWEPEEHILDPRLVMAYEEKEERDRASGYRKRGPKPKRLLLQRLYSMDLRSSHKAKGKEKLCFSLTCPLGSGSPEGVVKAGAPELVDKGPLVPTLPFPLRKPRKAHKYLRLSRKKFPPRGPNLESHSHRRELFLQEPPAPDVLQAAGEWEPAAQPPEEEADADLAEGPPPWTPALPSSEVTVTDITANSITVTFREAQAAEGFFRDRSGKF
CBX7 inh z-score: recorded beside CBX7 inh, whose call it bears; z-score; measured here: z-score of CBX7 signal; some inactives read as strong as hits; reference of the scale not given here;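 same signal on another scale; lower means less binding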
Numbers without * were called inactive.

Results follow in this order: CBX7 inh	CBX7 inh z-score
- O=C(NCc1ccccn1)c1ccc2c(c1)N(Cc1ccc(F)cc1)C(=O)c1ccccc1S2(=O)=O
  1.1	0.58
- NC(=O)CNC(=O)C1CCCc2c1[nH]c1ccc(Cl)cc21 (centres undefined)
  0.93	-3.2
- O=C(CN1C(=O)c2ccccc2Sc2ccc(C(=O)N3CCCC3)cc21)NCCc1ccccc1
  0.99	-0.31
- CC(C)(C)c1ccc(-c2csc(NC(=O)c3ccc(S(=O)(=O)N4CCCCC4)cc3)n2)cc1
  1	0.12
- COc1ccc(Nc2cc(C(=O)NCCN(Cc3ccccc3)C(C)C)c3ccccc3n2)cc1OC
  0.54	-9.1
- Cc1oc(-c2ccccc2Cl)nc1CS(=O)(=O)CC(=O)N1CCC(N2CCCCC2)CC1
  1	0.61
- CC(C)(C)c1ccccc1OCC(=O)NCCc1nc2ccccc2[nH]1
  0.84	-3
- COc1ccc(CCNC(=O)C2CC(=O)N(C3CCCCCCC3)C2)cc1OC (centres undefined)
  0.98	-0.4
- COc1ccc(CC(CC(=O)Nc2ccc(Cl)cc2)C(=O)O)cc1 (centres undefined)
  1.4	3.1
- COc1cccc(C2=NOC(C(=O)NCCc3ccc(OC)c(OC)c3)C2)c1 (centres undefined)
  0.97	-0.45
- NS(=O)(=O)c1ccc(CCNC(=O)c2ccc3c(c2)NC(=O)c2ccccc2S3)cc1
  1.2	1.6
- CCCCCCCc1c(O)nc(SCC(=O)O)[nH]c1=O
  1	1.8
- CN(Cc1ccccc1)C(=O)c1ccc2c(c1)N(Cc1cccc(F)c1)C(=O)c1ccccc1S2
  0.88	-3.4
- O=C(CN1C(=O)CCSc2ccccc21)NC1CCCC1
  1	0.15
- O=C(CCCN1C(=O)c2cccnc2C1=O)Nc1ccc(Cl)c(C(F)(F)F)c1
  0.72	-4.7
- COc1cc(OC)cc(-c2nc(-c3ccc(Br)cc3)no2)c1
  1.1	0.12
- CCOC(=O)c1sc2ncn(CC(=O)Nc3ccc(C)c(Cl)c3)c(=O)c2c1C
  1	0.49
- CC1=C(C(=O)Nc2ccc(C)cn2)C(c2ccc(F)cc2)C2=C(CC(C)(C)CC2=O)N1 (centres undefined)
  1.1	0.18
- CC(=O)c1c(C)cc(C)c(CSc2nnc(-c3ccc(Cl)cc3)o2)c1C
  1.2	7.7
- CCc1cccc(NC(=O)C2CCCN(S(=O)(=O)c3ccc(Br)s3)C2)c1 (centres undefined)
  0.81	-0.77

Look-ups from the list:
Entry of CN(Cc1ccccc1)C(=O)c1ccc2c(c1)N(Cc1cccc(F)c1)C(=O)c1ccccc1S2 in CBX7 inh z-score: -3.4
Entry of CC(C)(C)c1ccccc1OCC(=O)NCCc1nc2ccccc2[nH]1 in CBX7 inh: 0.84
Entry of COc1ccc(CC(CC(=O)Nc2ccc(Cl)cc2)C(=O)O)cc1 (centres undefined) in CBX7 inh z-score: 3.1
Entry of CCc1cccc(NC(=O)C2CCCN(S(=O)(=O)c3ccc(Br)s3)C2)c1 (centres undefined) in CBX7 inh z-score: -0.77
Entry of Cc1oc(-c2ccccc2Cl)nc1CS(=O)(=O)CC(=O)N1CCC(N2CCCCC2)CC1 in CBX7 inh: 1

Record cards, from the list above. Screens in order: CBX7 inh	CBX7 inh z-score
O=C(CN1C(=O)c2ccccc2Sc2ccc(C(=O)N3CCCC3)cc21)NCCc1ccccc1 as listed: 0.99	-0.31
CC1=C(C(=O)Nc2ccc(C)cn2)C(c2ccc(F)cc2)C2=C(CC(C)(C)CC2=O)N1 (centres undefined) as listed: 1.1	0.18

(listing goes on)
Results follow in this order: CBX7 inh	CBX7 inh z-score
- CCOC(=O)c1cnn(-c2ccccc2)c1NC(=O)CSc1nc(C)cc(C)n1
  1	1.5
- COc1cc(OC)cc(-c2cc3nc(C)c(CCC(=O)Nc4ccccc4OC)c(C)n3n2)c1
  1.1	1.1
- CCN1CCN(c2cc(C)c3cc(NC(=O)C4CCC(C)CC4)ccc3n2)CC1 (centres undefined)
  1.1	0.62
- CCn1c(=O)cc(OCC(=O)N(C)c2ccccc2Cl)c2ccccc21
  1	0.75
- OC(c1ccccc1)(c1ccccc1)c1cnn(Cc2ccccc2)n1
  1.1	1.4
- Cc1ccc(NC(=O)CSc2nc3nc(C)c(Cc4ccccc4)c(C)n3n2)cc1C
  1.2	0.62
- CN(C)c1ccc(C(O)c2nc3ccccc3n2Cc2ccccc2)cc1 (centres undefined)
  0.86	-2.8
- CCCCc1ccc(NC(=O)CSc2nccn2-c2ccccc2)cc1
  0.51	-10
- O=C(Nc1ccccc1C(=O)Nc1ccccn1)c1ccccc1
  1	1.2
- Cc1ccnc(N2C(=O)c3ccccc3C2Nc2ccc3c(c2)OCCO3)c1 (centres undefined)
  0.93	-2.6
- O=C(c1cc(-c2ccncc2)nc2ccccc12)N1CCOCC1
  1	0.16
- O=C(NCc1ccc(F)cc1)c1cc(=O)n(Cc2ccc(Cl)cc2)c2ccccc12
  1.1	0.57
- CC1CCCCC1NC(=O)c1cc2c(s1)CS(=O)(=O)C2 (centres undefined)
  1	0.67
- OC(C#CCN1CCOCC1)(c1ccccc1)c1cccc(F)c1 (centres undefined)
  1.1	0.43
- CCN1C(=O)c2ccc(C(=O)Nc3cccc(C(=O)O)c3)cc2C1=O
  0.93	-2.6
- O=C(c1nn2c(c1Cl)NC(c1ccccc1)CC2C(F)(F)F)N1CCCCC1 (centres undefined)
  1	1.2
- Cc1cc(NC(=O)Cn2ncc3c2-c2ccccc2OC3)no1
  0.93	-1
- Cc1cccc(CC(=O)N2CC(=O)Nc3ccc(F)cc3C2c2ccccc2)c1 (centres undefined)
  0.92	-0.36
- O=C(Cn1nc(-c2ccc(Cl)cc2)ccc1=O)NCCCN1CCCC1=O
  1.1	2.6
- Cc1ccc(-c2nc(CSCC(=O)NCCN3CCN(Cc4ccccc4)CC3)c(C)o2)cc1
  0.97	-0.58
- O=C(NCc1ccc(Cl)cc1)c1cc(=O)nc2sc(-c3ccccc3)nn12
  1.2	1.7
- Cc1cccc(-c2nc(CN3CCCC(C(=O)NC4CCCC4)C3)c(C)o2)c1 (centres undefined)
  0.97	-0.8
- O=C(C1CC1)N1CCc2cc(S(=O)(=O)N3CCN(c4ccc(Cl)cc4)CC3)ccc21
  1	0.16
- O=C1CN(C(=O)c2ccccc2)C(c2ccccc2)c2cc(Br)ccc2N1 (centres undefined)
  0.87	-2.7
- CCOCCn1c(COc2ccc(C)cc2)nc2ccccc21
  1	2.5
- CCCCSCCCNC(=O)CN1CCN(Cc2ccc(Cl)cc2)C1=O
  0.96	-0.87
- Cc1ccccc1CN1C(=O)C(O)(CC(=O)c2ccc(N)cc2)c2ccccc21 (centres undefined)
  0.92	-0.2
- Cc1ccc2nc(-c3ccc(NC(=O)c4ccc(F)cc4)cc3)sc2c1
  1.2	1.3
- Cn1c(SCC(=O)N2CCOCC2)nnc1-c1c[nH]c2ccccc12
  1.1	0.62
- CN(Cc1ccccc1)C(=O)c1cc(-c2ccc(Cl)cc2)on1
  1.1	0.19
- COc1cccc(C(=O)Nc2c3c(nn2-c2cccc(C)c2)CSC3)c1OC
  1	0.95
- CC(C)(C)c1ccc2c(c1)N(CC(=O)NCCCN1CCCC1)C(=O)CO2
  1	0.73
- COc1ccccc1CNC(=O)Cn1nc(-c2ccccc2)c2cc(Cl)ccc21
  1	0.083
- CC1CCN(CCCNC(=O)c2cnc(N3CCN(c4ncccn4)CC3)c3ccccc23)CC1
  1.1	2.4
- COc1ccc(C(=O)CC2(O)C(=O)N(Cc3ccccc3C)c3ccccc32)c(OC)c1 (centres undefined)
  0.92	-0.21
- Cc1ccc(-c2nc3cc(Cl)ccc3o2)cc1NC(=O)C(C)C
  0.98	-0.48
- CC(Nc1nc(-c2ccc(F)cc2)cc(C(F)(F)F)n1)c1ccccc1 (centres undefined)
  1.5	19
- O=c1oc2cc(O)ccc2cc1-c1nnc(Nc2ccc(F)cc2)s1
  0.98	-0.46
- NC(=O)Cn1cnc2c(nnn2Cc2ccc(F)cc2)c1=O
  0.9	-1.7
- CCOC(=O)c1c(NC(=O)c2cccc(F)c2)sc2c1CCC(C(C)(C)C)C2 (centres undefined)
  1.5	3.9
- CC(CCc1ccccc1)NC(=O)CSCc1cnn(-c2ccccc2)c1-n1cccc1 (centres undefined)
  1	0.25
- Cc1ccc2oc(-c3ccc(NC(=O)c4cccc(F)c4)c(C)c3)nc2c1
  1	0.48
- Cc1cccc(Nc2nnc(-c3cc4c(CO)cnc(C)c4oc3=O)s2)c1
  1.1	0.82
- Cc1ccc(-c2noc(-c3ccccc3O)n2)cc1
  1.2	2
- COc1ccc(Nc2nnc(Cc3cccnc3)c3ccccc23)c(OC)c1
  0.99	-0.19
- COC(=O)c1c[nH]n2c(NCCc3ccccc3)c(-c3ccc(F)cc3)nc12
  0.89	-2.2
- O=C(NCc1ccccn1)c1ccc2c(c1)N(Cc1ccccc1F)C(=O)c1ccccc1S2
  0.96	-1.1
- O=C(NCCc1nc2ccccc2[nH]1)c1ccc(Br)cc1
  1	0.14
- O=C(NCCCN1CCCCCC1)C1CCC(=O)N1C1CCCC1 (centres undefined)
  1.1	3.7
- O=C(CN1C2=NCCCN2c2ccccc21)c1ccc(Br)cc1
  0.85	-1.7
- O=C(c1cc(-c2ccc(Br)cc2)on1)N1CCOCC1
  1	0.37
- O=C(NCc1cccnc1)C1c2ccccc2C(=O)N1C1CCCCCCC1 (centres undefined)
  1	0.024
- CCOc1ccc(C(=O)N2CC(=O)Nc3ccc(C)cc3C2c2ccccc2)cc1 (centres undefined)
  0.88	-0.51
- COc1ccc(-n2nc(C(=O)Nc3nc4ccc(OC)cc4s3)c3ccccc3c2=O)cc1
  1	0.48
- O=C(Cn1nc(Cc2cccnc2)c2ccccc2c1=O)Nc1ccccc1F
  0.95	-1.1
- CCOC(=O)c1c(NC(=O)c2ccc(Br)cc2)sc2c1CCCC2
  1	0.36
- CCc1ccc(OCC(=O)Nc2sc3c(c2C(=O)OC)CCCC3)cc1
  1.1	1.8
- COc1cccc(C(=O)Nc2nc(-c3ccccc3)c(C)s2)c1
  1.1	0.78
- Cc1ccc(C)c(N2CCN(C(=O)CN3CC(c4ccccc4)CC3=O)CC2)c1 (centres undefined)
  0.99	-0.27
- CCOc1ccc(N2C(=O)CC(Cc3ccccc3)C2=O)cc1 (centres undefined)
  0.98	-0.42

Other entries
Results follow in this order: CBX7 inh	CBX7 inh z-score
- CCCN(CCC)CC(O)COc1ccccc1C(=O)Nc1ccccc1 (centres undefined)
  1.2	1.8
- CCOC(=O)C1CCCN(C(=O)c2ccc3c(c2)NC(=O)c2ccccc2S3)C1 (centres undefined)
  1.1	2.3
- Cc1nc2cc(-c3ccc(Cl)cc3)nn2c(C)c1CCC(=O)Nc1ccc(F)cc1F
  1.1	0.74
- Cc1ccc(Cl)cc1N1CCN(CCNC(=O)Nc2cccc3ccccc23)CC1
  0.99	-0.12
- CCOc1ccc(-c2nc3ccc(C(=O)NCCN(C)C)cc3nc2-c2ccc(OCC)cc2)cc1
  1.7	2.8
- COCC(=O)NCCc1nc(-c2ccccc2)cs1
  1	0.55
- COc1ccc(NC2c3ccccc3C(=O)N2Cc2ccccc2Cl)c(OC)c1 (centres undefined)
  0.73	-0.27
- CCN1CCN(c2ccc(Nc3nc(-c4ccccc4)c4cc(Cl)ccc4n3)cc2)CC1
  0.23*	-25*
- CCN1CCN(c2oc(COc3ccccc3OC)nc2C#N)CC1
  1	0.26
- O=c1[nH]c2ccccc2n1CCCSc1cnc2ccccc2n1
  0.93	-0.78
- COc1cccc(C2=NOC(C(=O)NCc3cccnc3)C2)c1 (centres undefined)
  0.95	-0.64
- Cc1ccc(CN2C(=O)CCC2C(=O)NCCCN2CCC(C)CC2)cc1 (centres undefined)
  1	0.78
- CC(NC(=O)CSc1ncnc2nc[nH]c12)c1ccccc1 (centres undefined)
  1	1.8
- COC(=O)c1cnn2c(C)c(Cc3cccc(Br)c3)c(C)nc12
  1.1	3.2
- COc1ccccc1C(=O)Nc1ccc2oc(-c3ccc(C(C)(C)C)cc3)nc2c1
  0.8	-1.7
- COc1ccccc1NC(=O)C1CCCN1S(=O)(=O)c1ccc2c(c1)n(C)c(=O)c(=O)n2C (centres undefined)
  1.2	2
- Cc1c(C(=O)Nc2ccncc2)sc2nc(-c3ccccc3)cn12
  0.92	-1.5
- O=S1(=O)N=C(N2CCCCC2)c2ccccc21
  1.1	2
- OC(CC#CCN(Cc1ccccc1)Cc1ccccc1)(c1ccccc1)C1CCCC1 (centres undefined)
  1.5	7.9
- O=C(NCc1ccccc1Cl)C(=O)c1c(-c2ccccc2)[nH]c2ccccc12
  0.82	-3
- CCOC(=O)c1cnc2ccc(OCC)cc2c1NC(C)C
  1.1	4.4
- CCCCCN1C(C(=O)c2ccccc2)=C(NC(=O)c2ccc(OC)c(OC)c2)c2ccccc2S1(=O)=O
  0.81	-2.4
- COC(=O)CNC(=O)c1cn(-c2ccc(C)c(C)c2)c(=O)c2ccccc12
  1	0.048
- Cc1ccc(CNC(=O)CN2CCN(Cc3cccc(C)c3)C2=O)cc1
  0.98	-0.34
- Cc1ccc(CC(=O)Nc2nnc(Cc3ccc(Cl)cc3)s2)cc1
  0.9	-1.2
- CN1CCN(C(=O)c2cnc(N3CCN(c4ncccn4)CC3)c3ccccc23)CC1
  1	0.57
- O=C(NCCCN1CCOCC1)c1cc(-c2ccc(Cl)cc2)on1
  1.1	0.081
- Cc1c(C(=O)N2CCN(C)CC2)oc2ccc(S(=O)(=O)N3CCCC3)cc12
  0.99	-0.034

Three entries from above, sorted by count of non-hydrogen atoms, largest number first.
Results follow in this order: CBX7 inh	CBX7 inh z-score
- CCCCCN1C(C(=O)c2ccccc2)=C(NC(=O)c2ccc(OC)c(OC)c2)c2ccccc2S1(=O)=O
  0.81	-2.4
- Cc1c(C(=O)N2CCN(C)CC2)oc2ccc(S(=O)(=O)N3CCCC3)cc12
  0.99	-0.034
- CCOC(=O)c1cnc2ccc(OCC)cc2c1NC(C)C
  1.1	4.4

Filtered by structure, the entries above with a COOH group (3)
Results follow in this order: CBX7 inh	CBX7 inh z-score
- COc1ccc(CC(CC(=O)Nc2ccc(Cl)cc2)C(=O)O)cc1 (centres undefined)
  1.4	3.1
- CCCCCCCc1c(O)nc(SCC(=O)O)[nH]c1=O
  1	1.8
- CCN1C(=O)c2ccc(C(=O)Nc3cccc(C(=O)O)c3)cc2C1=O
  0.93	-2.6

This is a subset; the hit share may differ from the screen's.
